# Cruzain inh Det: inhibitors of Trypanosoma cruzi cruzain with detergent; P25779; purified cruzain, Z-FR-AMC fluorescence, 0.01% Triton; Potency, µM, for the others: max response, negative = inhibition, actives largely listed as inhibitors; 200,000 tested, 0.43% active; AID 1478;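 further: plate controls were neutral wells for no effect and buffer without enzyme for full effect; nearly all actives have a fitted effect of over 40% in size; top concentration of the series not given in the record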
# Target sequence (P25779 123-467 limits assumed): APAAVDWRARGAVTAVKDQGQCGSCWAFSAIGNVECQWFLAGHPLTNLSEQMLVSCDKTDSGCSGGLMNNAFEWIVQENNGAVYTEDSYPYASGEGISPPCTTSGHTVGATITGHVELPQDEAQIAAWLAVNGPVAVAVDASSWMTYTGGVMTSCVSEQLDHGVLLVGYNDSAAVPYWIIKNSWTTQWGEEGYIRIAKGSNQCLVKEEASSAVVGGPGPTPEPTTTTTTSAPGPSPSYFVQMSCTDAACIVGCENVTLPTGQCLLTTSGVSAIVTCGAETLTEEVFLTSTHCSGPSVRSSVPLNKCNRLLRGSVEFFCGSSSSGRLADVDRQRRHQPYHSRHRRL
#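 Detergent-containing arm of a paired screen for aggregation-based inhibition: 0.01% Triton X-100 present. Cruzain at 1.5 nM cleaved 2 uM Z-FR-AMC at pH 5.5 with 5 mM DTT; AMC fluorescence gain over 60 s measured activity.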
# NS1 inh: inhibitors of influenza NS1 protein function; S. cerevisiae slowed by influenza A NS1, growth recovery by OD600; Potency, µM (doses to about 46.1 µM), without a hit: at the top dose activity, positive = more growth; 270,000 tested, 0.4% active; active means well fitted rising curve with a large enough effect; inconclusive means small, poorly fitted or top-dose-only effect; inactive means no such curve, though single readings can be large or run the other way; further: nearly all actives have a fitted effect of over 50% in size
#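 In this qHTS, NS1 from influenza A is expressed in budding yeast, where it slows growth. Cells are switched from glucose to 2% galactose medium (pH 6.0, -URA), treated with compound, and growth recovery is read at OD600.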
# 2A StopGo: lowers the luciferase signal of an FMDV 2A StopGo reporter; 410,000 tested, 1.2% active; AID 1159524; human cells with a luciferase reporter of 2A StopGo recoding; control for the full effect not named in the record; Potency, µM (doses to about 57.9 µM), inactives show at the top dose signal change, negative = less light; active = well fitted falling curve with a large enough effect; inconclusive = small, poorly fitted or top-dose-only effect; inactive = no such curve, though single readings can be large or run the other way; tested in HEK293T cells; further: on the % scale 0 is the no-effect control and ±100 the full control effect; nearly all actives have a fitted effect of over 45% in size; luciferase light after 4 h
# RE007 growth inh: less growth of the S. pombe RE007 Vpr strain; S. pombe RE007 Vpr strain, BacTiter-Glo ATP luminescence, 24 h; control for the full effect not named in the record; Potency, µM (top dose mostly 92.2 µM), inactives show at the top dose activity change, negative = less growth; 360,000 tested, 0.21% active; AID 651644; active = well fitted falling curve with a large enough effect; inconclusive = small, poorly fitted or top-dose-only effect; inactive = no such curve, though single readings can be large or run the other way;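 further: on the % scale 0 is the no-effect control and ±100 the full control effect; nearly all actives have a fitted effect of over 50% in size; the assay follows cell death caused by Vpr and the record does not say whether a fall means rescue or toxicity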
#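 Fission yeast RE007 carrying one integrated HIV-1 vpr copy, seeded at OD 0.01 in PMG+AL medium with 23 nL pinned compound. Grown 24 h at 30 degrees; viability read by BacTiter-Glo luminescence after 5 min.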
# Cruzain inh noDet: cruzain (T. cruzi) inhibition without detergent | P25779 | Potency, µM, inactives show max response, negative = inhibition, hits mostly inhibitors | 200,000 tested, 2.3% active | AID 1476 | purified cruzain, Z-FR-AMC fluorescence, no detergent;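 further: plate controls were enzyme without inhibitor for no effect and buffer without enzyme for full effect; nearly all actives have a fitted effect of over 40% in size; top concentration of the series not given in the record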
#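 Purified cruzain at 1.5 nM, pre-incubated 15 min with compound at room temperature in 100 mM sodium acetate pH 5.5, 5 mM DTT, 0.00005% Triton X-100. Reaction started with 2 uM Z-FR-AMC; AMC fluorescence increase over 60 s gives rate.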
# LASV entry inh: inhibitors of Lassa virus binding or cell entry | 300,000 tested, 1.2% active | Lassa virus pseudotype entry inhibition, cell reporter; control for the full effect not named in the record | Potency, µM (highest dose often 37.9 µM), without a hit: at the highest dose activity change, negative = inhibition, actives largely listed as inhibitors; active means well fitted inhibition curve with a large enough effect; inconclusive means small, poorly fitted or top-dose-only effect, or effect the other way; inactive means flat fitted curve, though single readings scatter; tested in HEK293 cells; further: on the % scale 0 is the no-effect control and ±100 the full control effect; nearly all actives have a fitted effect of over 50% in size; luciferase read-out
# Marburg entry inh: Marburg virus entry inhibition; Marburg virus pseudotyped entry inhibition, cell reporter; control for the full effect not named in the record; about a third of the inactives were read at about 46 µM; Potency, µM (top dose mostly 37.8 µM), without a hit: at the highest dose activity change, negative = inhibition, usual class: inhibitors; 300,000 tested, 1.8% active; AID 540276; active = well fitted inhibition curve with a large enough effect; inconclusive = small, poorly fitted or top-dose-only effect, or effect the other way; inactive = flat fitted curve, though single readings scatter; tested in HEK293 cells; about a fifth of its hits are not listed in these tables; further: on the % scale 0 is the no-effect control and ±100 the full control effect; luciferase read-out
# SARS PLP yeast: inhibitors of SARS-CoV papain-like protease in yeast; S. cerevisiae expressing SARS-CoV PLpro, growth rescue; control for the full effect not named in the record; Potency, µM (series often up to 32.9 µM), for the others: top-dose activity, positive = growth rescue; 330,000 tested, 0.19% active; AID 485353; active means well fitted rising curve with a large enough effect; inconclusive means small, poorly fitted or top-dose-only effect; inactive means no such curve, though single readings can be large or run the other way; further: 0% is about no effect; nearly all actives have a fitted effect of over 55% in size; growth read by luminescence after 48 h
# The depositor's hits bear a star; ? = inconclusive; / = not tested or not shown; & = joins results of further samples; [ ] = dose if it differs, or a comment. Unless noted, the call rests on the fitted dose curve; in most records, active means well fitted curve in the direction sought with a large enough effect; inconclusive means small, poorly fitted or top-dose-only effect, or another doubt; inactive means no such curve, though single readings can be large; an effect the other way counts as inactive or inconclusive. Potency means the concentration at half of the fitted maximal effect.
# Start of the data: the first six records as a preview:
SMILES,Cruzain inh Det,NS1 inh,2A StopGo,RE007 growth inh,Cruzain inh noDet,LASV entry inh,Marburg entry inh,SARS PLP yeast
Cc1cccc(NC(=O)CSc2ccc(-c3ccc4c(c3)OCO4)nn2)c1C,-0.7%,7.5%,2.3%,-2.7%,-25.2%,0.5%,-0.8%,-2.1%
CCOc1ccc(CCNC(=O)c2ccc(CS(=O)Cc3cccc(Cl)c3)o2)cc1 (stereo not drawn),-9.0%,-7.1%,-18.0%&-29.0%,2.4%,?,?,?,-2.5%
CCC(=O)N=c1sc2cc([N+](=O)[O-])ccc2n1CCOC,3.1%,18.8%,-5.0%,6.7%,3.6%,1.9%,9.1%,-12.1%
O=C(Oc1c(Cl)cc(Cl)c2cccnc12)c1cccs1,-6.6%,-17.4%,-20.4%,5.62µM*,-2.9%,?,?,/
Cc1ccc(-n2c3c(cc(C(=O)NC4CCSC4=O)c2=O)C(=O)CCC3)cc1 (stereo not drawn),-1.0%,1.5%,0.4%,20.0%,-8.4%,14.2%,?,0.0%
COc1ccc(NS(=O)(=O)c2cccc(C(=O)NNC(=O)CNC(=O)c3ccccc3F)c2)cc1,/,/,-3.6%,-10.6%,/,5.1%,-7.0%,-2.1%

# All compounds of this part (from the top)
SMILES,Cruzain inh Det,NS1 inh,2A StopGo,RE007 growth inh,Cruzain inh noDet,LASV entry inh,Marburg entry inh,SARS PLP yeast
Cc1cccc(NC(=O)CSc2ccc(-c3ccc4c(c3)OCO4)nn2)c1C,-0.7%,7.5%,2.3%,-2.7%,-25.2%,0.5%,-0.8%,-2.1%
CCOc1ccc(CCNC(=O)c2ccc(CS(=O)Cc3cccc(Cl)c3)o2)cc1 (stereo not drawn),-9.0%,-7.1%,-18.0%&-29.0%,2.4%,?,?,?,-2.5%
CCC(=O)N=c1sc2cc([N+](=O)[O-])ccc2n1CCOC,3.1%,18.8%,-5.0%,6.7%,3.6%,1.9%,9.1%,-12.1%
O=C(Oc1c(Cl)cc(Cl)c2cccnc12)c1cccs1,-6.6%,-17.4%,-20.4%,5.62µM*,-2.9%,?,?,/
Cc1ccc(-n2c3c(cc(C(=O)NC4CCSC4=O)c2=O)C(=O)CCC3)cc1 (stereo not drawn),-1.0%,1.5%,0.4%,20.0%,-8.4%,14.2%,?,0.0%
COc1ccc(NS(=O)(=O)c2cccc(C(=O)NNC(=O)CNC(=O)c3ccccc3F)c2)cc1,/,/,-3.6%,-10.6%,/,5.1%,-7.0%,-2.1%
CC1CCCN(C(=O)c2nn(C)c3c2CSc2ccccc2-3)C1 (stereo not drawn),/,0.4%,39.0%[activator],2.5%,/,/,/,-2.5%
Cn1c(N)c(C(=O)COC(=O)C2CC(=O)N(Cc3ccccc3)C2)c(=O)n(C)c1=O (stereo not drawn),/,/,0.7%,-5.7%,/,-23.9%[46.1 µM],-3.1%[46.1 µM],-4.1%
O=C(Cc1ccccc1)N1CCN(Cc2ccc([N+](=O)[O-])cc2)CC1,3.1%,5.0%,-23.3%,10.3%,1.8%,-6.5%,?,9.1%
Cc1cccc(-n2nnnc2SCC(=O)NCC2CCCO2)c1 (stereo not drawn),/,9.5%,?,2.8%,/,/,/,0.3%
CC(C)(C)OC(=O)C(C)(C)O/N=C(\C(=O)O)c1csc(N)n1,/,1.5%,-11.8%,0.4%,/,/,/,1.0%
CCC(C)[C@H](NC(=O)NCc1ccc(Cl)cc1)C(=O)OC (stereo partly drawn),-3.8%,-2.3%,-15.2%,-20.9%,2.8%,-25.8%,-2.3%,-1.5%
CCC(C)c1ccc(NC(=O)COC(=O)C2CCCC2)cc1 (stereo not drawn),/,/,12.9%,10.0%,/,23.1%,7.5%,-7.0%
O=C(NC(NC(=S)Nc1c(Cl)cc(Cl)cc1Cl)C(Cl)(Cl)Cl)OCc1ccccc1 (stereo not drawn),-0.8%,-2.4%,?,-1.3%,12.2%,?,?,9.5%
Cn1nnnc1SCc1cccc2ccccc12,/,/,9.0%,11.6%,/,-12.4%,-22.8%[46.1 µM],-0.2%
O=c1[nH]cnc2onc(-c3ccc(F)cc3)c12,/,-6.5%,-7.5%,13.7%,/,-3.6%,15.6%,-2.0%
C#CCNC(=O)C1=C[C@@H](c2cn(C(C)=O)c3ccccc23)C[C@@H](OCc2ccc(CO)cc2)O1,/,2.0%,-28.8%,21.3%,/,/,/,-1.3%
COc1ccc(C2=Nn3c(nnc3C(F)(F)F)SC2)cc1,/,1.4%,-22.1%,1.2%,/,/,/,-1.8%
CC1(C)CC(=O)c2cc(OCC(=O)N3CCN(Cc4ccccc4)CC3)ccc2O1,/,/,10.7%,-8.5%,/,10.5%,32.1%[46.1 µM],3.4%
CC(=O)Nc1ccc(Nc2cc(C)nc3c(-c4ccccc4)c(C)nn23)cc1,-11.9%,-20.3%,-29.9%,22.7%,?,-10.3%,?,-54.1%
CN1C[C@@H]2C(c3ccccc3)C3(c4ccc(C#N)cc4)CC2(C3)[C@H]1c1ccccc1 (stereo partly drawn),2.3%,1.3%,-9.3%,2.3%,-2.5%,/,/,-1.8%
NC(=O)c1c(NC(=S)Nc2ccccc2)sc2c1CCCC2,/,-0.5%,0.0%,6.5%,/,-28.8%,?,-2.1%
O=C(O)c1cc(NN=C2CCN(Cc3ccccc3)CC2)ccc1Cl,/,-0.9%,47.7%[activator],3.4%,/,/,/,0.0%
Cn1c(/C=N/NC(=O)c2ccccc2)nc2ccccc21,-9.7%,-15.0%,/,-5.5%,-13.1%,?,?,-11.1%
Cc1ccc2[nH]c(C(=O)N/N=C/c3ccccc3O)c(C)c2c1,/,0.6%,81.7%[activator],-2.8%,/,/,/,0.6%
CCN(CC)N=Nc1cccc(NC(C)=O)c1,/,-1.5%,24.9%,21.0%,/,-2.4%,22.6%,3.0%
CC(C(=O)Nc1ccc2c(c1)OCO2)N(c1ccc(Cl)cc1)S(C)(=O)=O (stereo not drawn),-1.2%,-36.5%,-9.1%,4.9%,3.1%,-7.0%,4.7%,-10.7%
N#C/C(=C\c1ccc(Cl)cc1)c1nc2ccccc2o1,-3.3%,0.2%,54.1%[activator],-7.6%,6.2%,-8.0%,3.0%,-19.6%
N#CC1=C(N)C(C#N)(C#N)[C@H](c2ccncc2)[C@H]2CN(C(=O)OCc3ccccc3)CC=C12,-6.9%,18.8%,?,0.1%,?,-26.1%[14.3 µM],?,-10.2%
COc1cccc(C(C(=O)NC2CCCCC2)N(C(=O)c2ccco2)c2ccc(-n3cnnn3)c(C)c2)c1 (stereo not drawn),-0.9%,-6.3%,-6.5%,2.6%,?,-52.5%,-18.5%[46.1 µM],-14.8%
CC(C)OC(=O)c1ccc(OC(=O)c2cccnc2)cc1,1.3%,-9.5%,25.2%,-8.5%,-9.8%,4.6%,0.2%,-5.9%
O=C(Cc1c(F)cccc1Cl)Nc1ccccn1,/,3.4%,31.9%[activator],-1.2%,/,17.8%,3.1%,-4.8%
COc1ccccc1N1CCN(C(=O)CCc2ccc(S(=O)(=O)NC(C)C)cc2)CC1,1.9%,-5.3%,0.0%,0.4%,?,-27.2%,-16.8%&-16.8%,-3.5%
COc1ccc(CNC(=O)C(CC(C)C)NS(=O)(=O)c2ccc3c(c2)oc(=O)n3C)cc1 (stereo not drawn),0.6%,/,3.2%,/,-9.6%,?,6.5%[46.1 µM],/
S=c1[nH]nc(-c2ccco2)n1Cc1ccccc1,3.8%,?,-3.4%,19.9%,10.5%,?,19.1%&19.1%,-3.2%
COc1ccc(-c2nn(-c3cccc([N+](=O)[O-])c3)c3c2cnc2cc4c(cc23)OCO4)cc1,0.0%,/,-4.6%,/,2.4%,16.8%[46.1 µM],/,/
O=C1NN(c2ccc(F)c(Cl)c2)C(=O)/C1=C\c1cccc(OC(=O)c2cccs2)c1,?,-4.7%,28.2µM*,-9.6%,?,1.1%,10.9%,11.5%
CC(C)(C)C1CCC(=NNC(=S)NCc2ccccc2)CC1 (stereo not drawn),/,/,-23.3%,3.0%,/,?,-0.1%[46.1 µM],17.8%
O=c1cc(-c2ccccc2)nc(SCc2ccccc2F)[nH]1,/,-0.2%,-3.9%,-10.2%,/,-14.5%[46.1 µM],4.0%[46.1 µM],-0.3%
COc1cc(C(C)=O)ccc1COc1ccc(C(=O)OCC(N)=O)cc1OC,-7.8%,23.0%,-8.1%,-5.8%,3.8%,16.9%,-21.6%,-11.9%
CCc1c(C)nc2cc(-c3cc(OC)cc(OC)c3)nn2c1N1CCCC1,-12.1%,-55.6%,/,?,?,-24.8%,3.66µM*,-27.8%
CC(=O)c1cccc(NC(=S)NC(=O)Cc2ccc(Cl)cc2)c1,/,6.7%,14.8%,2.8%,/,/,/,-0.1%
COc1ccc(C2=C(C)C(=O)N(Cc3ccc(C(=O)Nc4ccc(C)c(C)c4)cc3)S2(=O)=O)cc1,-2.5%,/,?,/,7.94µM*,-18.0%[46.1 µM],/,/
Fc1ccc(C(OCCN2CCN(CCCc3ccccc3)CC2)c2ccc(F)cc2)cc1,-2.8%&3.1%&-2.4%,-47.6%,?,/,7.2%&10.2%&10.9%,3.66µM*,7.08µM*,/
CC(=O)Nc1ccc(NS(=O)(=O)c2ccc3c(c2)NC(=O)CC(=O)N3)cc1,/,5.4%,-10.1%,-14.8%,/,11.0%[46.1 µM],?,-0.6%
CCCOC(=O)c1cc(-c2ccc(C=O)o2)ccc1Cl,-8.7%,-27.2%,7.0%,-4.3%,10.2%,3.5%,18.8%,-9.9%
CC=Cc1cc2c(c(=O)o1)C(=O)C(O)C(C)O2 (stereo not drawn),/,/,-60.7%,-0.4%,/,?,?,/

# Entries of single compounds as entered above. Values in the order: Cruzain inh Det	NS1 inh	2A StopGo	RE007 growth inh	Cruzain inh noDet	LASV entry inh	Marburg entry inh	SARS PLP yeast
# `COc1ccc(C2=C(C)C(=O)N(Cc3ccc(C(=O)Nc4ccc(C)c(C)c4)cc3)S2(=O)=O)cc1` as listed: -2.5%	/	?	/	7.94µM*	-18.0%[46.1 µM]	/	/
# `CCc1c(C)nc2cc(-c3cc(OC)cc(OC)c3)nn2c1N1CCCC1` as listed: -12.1%	-55.6%	/	?	?	-24.8%	3.66µM*	-27.8%
